RE007 growth inh: less growth of the S. pombe RE007 Vpr strain. S. pombe RE007 Vpr strain, BacTiter-Glo ATP luminescence, 24 h; control for the full effect not named in the record. Potency, µM (top dose mostly 92.2 µM), inactives show top-dose activity change, negative = less growth. 360,000 compounds, 0.21% hits. AID 651644; active = well fitted falling curve with a large enough effect; inconclusive = small, poorly fitted or top-dose-only effect; inactive = no such curve, though single readings can be large or run the other way;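 also: % is scaled to controls: 0 for no effect and ±100 for the full control effect; nearly all actives have a fitted effect of over 50% in size; the assay follows cell death caused by Vpr and the record does not say whether a fall means rescue or toxicity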
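Fission yeast RE007 carrying one integrated HIV-1 vpr copy, seeded at OD 0.01 in PMG+AL medium with 23 nL pinned compound. Grown 24 h at 30 degrees; viability read by BacTiter-Glo luminescence after 5 min.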
Lassa entry inh: Lassa virus entry inhibition; Lassa virus pseudotype entry inhibition, cell reporter; control for the full effect not named in the record; Potency, µM (doses to about 37.9 µM), for the others: top-dose activity change, negative = inhibition, usual class: inhibitors; 300,000 compounds, 1.2% hits; AID 540256; active means well fitted inhibition curve with a large enough effect; inconclusive means small, poorly fitted or top-dose-only effect, or effect the other way; inactive means flat fitted curve, though single readings scatter; tested in HEK293 cells; also: % is scaled to controls: 0 for no effect and ±100 for the full control effect; nearly all actives have a fitted effect of over 50% in size; luciferase read-out
2A StopGo: FMDV 2A StopGo reporter, luciferase signal | Potency, µM (series often up to 57.9 µM), for the others: at the top dose signal change, negative = less light | 410,000 compounds, 1.2% hits | human cells with a luciferase reporter of 2A StopGo recoding; control for the full effect not named in the record | AID 1159524; active = well fitted falling curve with a large enough effect; inconclusive = small, poorly fitted or top-dose-only effect; inactive = no such curve, though single readings can be large or run the other way; tested in HEK293T cells; also: % is scaled to controls: 0 for no effect and ±100 for the full control effect; nearly all actives have a fitted effect of over 45% in size; luciferase light after 4 h
SARS PLpro yeast: inhibitors of SARS-CoV papain-like protease in yeast; Potency, µM (doses to about 32.9 µM), without a hit: at the highest dose activity, positive = growth rescue; AID 485353; 330,000 compounds, 0.19% hits; S. cerevisiae expressing SARS-CoV PLpro, growth rescue; control for the full effect not named in the record; active means well fitted rising curve with a large enough effect; inconclusive means small, poorly fitted or top-dose-only effect; inactive means no such curve, though single readings can be large or run the other way; also: 0% is about no effect; nearly all actives have a fitted effect of over 55% in size; growth read by luminescence after 48 h
Cruzain inh Det: inhibitors of Trypanosoma cruzi cruzain with detergent. purified cruzain, Z-FR-AMC fluorescence, 0.01% Triton. P25779. 200,000 compounds, 0.43% hits. Potency, µM, for the others: max response, negative = inhibition, hits mostly inhibitors;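 also: plate controls were neutral wells for no effect and buffer without enzyme for full effect; nearly all actives have a fitted effect of over 40% in size; top concentration of the series not given in the record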
Target sequence (P25779 123-467 limits assumed): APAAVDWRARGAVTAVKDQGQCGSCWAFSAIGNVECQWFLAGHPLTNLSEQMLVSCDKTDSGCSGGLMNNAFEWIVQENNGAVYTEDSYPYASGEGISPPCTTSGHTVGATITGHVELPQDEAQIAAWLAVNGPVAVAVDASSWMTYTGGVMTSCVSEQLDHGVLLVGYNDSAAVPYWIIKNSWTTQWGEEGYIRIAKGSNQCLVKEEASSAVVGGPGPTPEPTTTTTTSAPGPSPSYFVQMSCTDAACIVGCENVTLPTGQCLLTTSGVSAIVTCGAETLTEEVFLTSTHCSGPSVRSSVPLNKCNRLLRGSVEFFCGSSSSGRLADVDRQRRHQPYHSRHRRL
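Cruzain (1.5 nM) preincubated 15 min at RT with compound in 100 mM sodium acetate pH 5.5, 5 mM DTT, 0.01% Triton X-100. Reaction started with 2 uM Z-FR-AMC; AMC fluorescence (ex 360/em 450 nm) change over 60 s gave rate.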
Cruzain noTriton: cruzain (T. cruzi) inhibition without detergent; P25779; purified cruzain, Z-FR-AMC fluorescence, no detergent; Potency, µM, inactives show max response, negative = inhibition, most hits filed as inhibitors; 200,000 compounds, 2.3% hits;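 also: plate controls were enzyme without inhibitor for no effect and buffer without enzyme for full effect; nearly all actives have a fitted effect of over 40% in size; top concentration of the series not given in the record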
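Purified cruzain at 1.5 nM, pre-incubated 15 min with compound at room temperature in 100 mM sodium acetate pH 5.5, 5 mM DTT, 0.00005% Triton X-100. Reaction started with 2 uM Z-FR-AMC; AMC fluorescence increase over 60 s gives rate.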
NS1 function inh: inhibitors of influenza NS1 protein function; S. cerevisiae slowed by influenza A NS1, growth recovery by OD600; 270,000 compounds, 0.4% hits; Potency, µM (titrated, usually from 46.1 µM), without a hit: at the highest dose activity, positive = more growth; active means well fitted rising curve with a large enough effect; inconclusive means small, poorly fitted or top-dose-only effect; inactive means no such curve, though single readings can be large or run the other way; also: nearly all actives have a fitted effect of over 50% in size
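S. cerevisiae expressing influenza A NS1, grown in glucose, washed, then diluted 1:100 into pH 6.0 -URA galactose medium with 23 nl compound. Growth recovery read as OD600; NS1-free strain serves as control.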
Marburg entry inh: Marburg virus entry inhibition; AID 540276; 300,000 compounds, 1.8% hits; Potency, µM (highest dose often 37.8 µM), for inactives: at the top dose activity change, negative = inhibition, hits mostly inhibitors; Marburg virus pseudotyped entry inhibition, cell reporter; control for the full effect not named in the record; about a third of the inactives were read at about 46 µM; active = well fitted inhibition curve with a large enough effect; inconclusive = small, poorly fitted or top-dose-only effect, or effect the other way; inactive = flat fitted curve, though single readings scatter; tested in HEK293 cells; about a fifth of its hits are not listed in these tables; also: % is scaled to controls: 0 for no effect and ±100 for the full control effect; luciferase read-out
Active calls of the source: *; ? = inconclusive; . = no result given; & = joins results of further samples; [ ] = dose if it differs, or a comment. Unless noted, calls follow the shape of the dose curve; as a rule, active = well fitted curve in the direction sought with a large enough effect; inconclusive = small, poorly fitted or top-dose-only effect, or another doubt; inactive = no such curve, though single readings can be large; an effect the other way counts as inactive or inconclusive. Potency is read from the fitted curve at half-maximal effect. Random draw from the library (roughly 4.8% active in at least one column).

SMILES | RE007 growth inh | Lassa entry inh | 2A StopGo | SARS PLpro yeast | Cruzain inh Det | Cruzain noTriton | NS1 function inh | Marburg entry inh
CCOC(=O)c1c(C)[nH]c(C(=O)C(C)OC(=O)c2oc3ccccc3c2COC)c1C (stereo not given) | 2% | -9% | -19% | 15% | -2.1% | -14% | -4% | -3%
COc1ccc(NC(=O)C2Cc3cc(S(=O)(=O)N4CCCCC4)ccc3N2C(C)=O)cc1Cl (stereo not given) | -10% | -26%[46.1 µM] | 26% | 7% | . | . | -3% | ?
CN(C)S(=O)(=O)c1cccc(-c2nnc(SCC(=O)NCCCCCC(=O)O)n2-c2ccc(F)cc2)c1 | -19% | 23% | 0% | -1% | . | . | . | 2%[46.1 µM]
Cc1[nH]c2ccccc2c1Cc1nnc(SCC(=O)NCc2ccco2)o1 | 10% | . | -22% | 9% | -5.3% | -3% | -9% | .
COc1ccc(CCn2c(=N)c(C(=O)NC3CCCC3)cc3c(=O)n4ccccc4nc32)cc1 | -9% | -4%[46.1 µM] | -17% | -16% | . | . | -4% | 2%[46.1 µM]
COc1ccc(N(CC(=O)NC2CCCCC2)C(=O)CNC(=O)c2cccs2)cc1 | 1% | . | 14% | -1% | . | . | 3% | .
Cc1nc2c(-c3ccccc3)c(C)[nH]n2c(=O)c1Cc1ccccc1 | 0% | -26% | -24% | 1% | . | . | 0% | ?
Cc1ccc(NC2CC(=O)N(Cc3ccccc3)C2=O)cc1 (stereo not given) | -17% | 0% | 10% | 1% | -8.5% | -1% | 2% | 5%
C=CCc1ccccc1OCCNCc1ccccc1 | -10% | ? | ? | -2% | . | . | . | ?
CC1(C)OC2OC3C(CNCCO)OC(c4ccccc4)OC3C2O1 (stereo not given) | -3% | 0% | -11% | . | . | . | . | ?
C#CCn1c(S(=O)(=O)Cc2ccc(OC)cc2)nc(-c2ccccc2)c1-c1ccccc1 | -2% | ? | -18% | 5% | 0.2% | ? | 18% | 4.1µM*
CCCCCCC(=O)N(O)C1CC(=O)N(c2ccc(Br)cc2)C1=O (stereo not given) | ? | -2% | -27% | -42% | 1.8% | 10µM* | -66% | -2%&-2%
COc1cccc(CNC(=O)C2CCCN(c3nn4c(=O)cc(C)nc4s3)C2)c1OC (stereo not given) | -28% | 4% | -24% | -12% | -0.4% | 4% | -1% | 8%
COCCCNC(=O)CCn1c(=O)c2ccccc2n(CC(=O)Nc2ccccc2C)c1=O | 13% | 11% | -3% | 6% | 2.4% | 4% | 11% | 20%[46.1 µM]
COc1ccccc1C1CCN(C(=O)C2CCCCC2)CC1 | 2% | . | -23% | -9% | . | . | -80% | .
CNC(=O)C(=O)N1CCC2(CC1)OCCN2S(=O)(=O)c1ccc(C)cc1 | 1% | -3% | -11% | 8% | . | . | . | 12%[46.1 µM]
CC1=C(C)CC2(CC1)C(=O)NC(=O)NC2=O | 5% | 1% | -10% | . | . | . | . | 15%
O=C(Cc1ccc(Cl)cc1)Nc1ccc(Cl)cn1 | -10% | -22%[46.1 µM] | 11% | -5% | . | . | 5% | -1%[46.1 µM]
COc1ccccc1N1CCN(C(=O)C2CCN(S(=O)(=O)c3c(C)noc3/C=C/c3ccc(C)cc3)CC2)CC1 | . | 15%[46.1 µM] | -11% | . | -2.9% | ? | . | .
CCCNC(=O)[C@H]1N2C(=O)c3c(ccc(OC)c3OC)C2SC1(C)C (stereo not given in full) | -9% | 6% | 12% | 0% | . | . | 3% | -5%

The list goes on; it opens with the 4 that closed the last part.
SMILES | RE007 growth inh | Lassa entry inh | 2A StopGo | SARS PLpro yeast | Cruzain inh Det | Cruzain noTriton | NS1 function inh | Marburg entry inh
CC1=C(C)CC2(CC1)C(=O)NC(=O)NC2=O | 5% | 1% | -10% | . | . | . | . | 15%
O=C(Cc1ccc(Cl)cc1)Nc1ccc(Cl)cn1 | -10% | -22%[46.1 µM] | 11% | -5% | . | . | 5% | -1%[46.1 µM]
COc1ccccc1N1CCN(C(=O)C2CCN(S(=O)(=O)c3c(C)noc3/C=C/c3ccc(C)cc3)CC2)CC1 | . | 15%[46.1 µM] | -11% | . | -2.9% | ? | . | .
CCCNC(=O)[C@H]1N2C(=O)c3c(ccc(OC)c3OC)C2SC1(C)C (stereo not given in full) | -9% | 6% | 12% | 0% | . | . | 3% | -5%
CCOc1ccc2nc(NC(=O)CS(=O)(=O)c3ccccc3)sc2c1 | -8% | -4% | 12% | -14% | -11% | -28% | -18% | -20%
O=C1c2ccc3c4c(ccc(c24)C(=O)N1Cc1cccnc1)C(=O)N(Cc1cccnc1)C3=O | . | . | . | -1% | 1.6% | -4% | 3% | 6%
O=C(O)c1cc(N/N=C/c2ccc3c(c2)OCO3)ccc1Cl | 6% | ? | 14µM* | 4% | . | . | . | 2.5µM*
COc1ccc(-n2c(-c3ccc(Br)cc3)c[n+]3c2CCCCC3)cc1 | -3% | ? | -20% | 0% | . | . | . | ?
CNS(=O)(=O)c1cn(CC(=O)N2CCN(c3ccccc3OC)CC2)cc1S(=O)(=O)NC | . | 7%[46.1 µM] | 10% | . | -3.2% | 10% | . | .
CCOc1ncccc1C(=O)N1CCN(c2cc(Cl)ccc2C)CC1 | 1% | ? | ? | -11% | . | . | -1% | ?
CCOC(=O)c1cc2c(ccn2C)n1Cc1ccc(C#N)cc1 | -13% | ? | 56%[activator] | -3% | . | . | 4% | 16%
CN(Cc1nccn1C)C(=O)C1CCC(=O)N(Cc2cccc(C(F)(F)F)c2)C1 (stereo not given) | -9% | 7%[46.1 µM] | 1% | -4% | . | . | 5% | -5%[46.1 µM]
CC(=O)c1ccc(OC(C)C(=O)NC2CCCCC2C)cc1 (stereo not given) | -22% | 8% | -17% | -3% | . | . | . | ?
CC(=O)c1ccc(OC(=O)Cc2cccc3ccccc23)cc1 | -3% | . | -2% | -1% | . | . | -39% | .
O=C(CSc1ccc2nnc(-c3cccnc3)n2n1)Nc1ccc(F)cc1 | 0% | -29% | -6% | -3% | . | . | 16% | ?
CCOC(=O)c1sc(NC(=O)C2CCCO2)c(C(=O)OCC)c1C (stereo not given) | . | . | . | 11% | -5.2% | 13% | 12% | 2%
O=C(Cc1ccccc1)NC(C(=O)O)C(O)c1ccc([N+](=O)[O-])cc1 (stereo not given) | -5% | . | -1% | -1% | . | . | 2% | .
Clc1ccc(CSc2nnc(-c3sccc3-n3cccc3)o2)cc1 | -12% | 0% | ? | -27% | -1.8% | 11% | 9% | ?
O=C(Nc1nccs1)C1CCN(S(=O)(=O)c2ccccc2)CC1 | -6% | 24%[46.1 µM] | -8% | -4% | . | . | -5% | -30%[46.1 µM]
C#CCOc1c(/C=C\c2nc(O)c([N+](=O)[O-])c(=O)[nH]2)cc(Br)cc1OC | 6% | . | -4% | 4% | . | . | 10% | .
CN(C)S(=O)(=O)N1CCC(N2CCN(Cc3ccc(F)cc3)C(=O)C2=O)CC1 | . | 9%[46.1 µM] | -15% | . | 5.5% | 7% | . | .
COc1ccc(NC(=O)COC(=O)c2ccc(Br)o2)cc1OC | -6% | 14% | 12% | 2% | 1.2% | 6% | -4% | ?
CCc1nccn1S(=O)(=O)c1ccc(OC)c(OC)c1 | 11% | . | 8% | 1% | -6.0% | -6% | -2% | .
CCc1nn(CCCC(=O)N2CCN(c3cccc(OC)c3)CC2)c(=O)c2cc3occc3n12 | . | ? | -2% | . | -0.9% | 1% | . | 3%[46.1 µM]
O=C1NC(CCO)C(=O)NC1CCO (stereo not given) | -5% | 26%[46.1 µM] | -3% | . | . | . | . | 27%[46.1 µM]
Cc1ccc(CNC(=O)COc2ccc3c(c2)CCC3)cc1 | -2% | 18µM* | -4% | 0% | -4.3% | 9% | -13% | 18%
O=C(CN1CCN(c2ccccn2)CC1)Nc1ccc(F)c(F)c1 | -4% | ? | -11% | -2% | . | . | 4% | -14%[46.1 µM]
COc1ccc2cc(C(=O)NCc3ccccc3)c(=O)oc2c1 | 2% | . | 81%[activator] | 2% | . | . | 4% | .
COc1cccc(/C=N/NC(=O)c2cc(-c3cccn3C)n[nH]2)c1 | -3% | -1% | -7% | -1% | 1.0% | 25µM* | 16% | -8%
Cc1ccc(Nc2nc(CSc3nnc(-c4cccnc4)n3-c3ccccc3F)cs2)cc1 | -8% | 16% | 10% | -11% | -6.5% | ? | 12% | 18%[46.1 µM]
COc1ccc(N2CCN(CCCNC(=O)C3CCC(CNc4nc(=S)[nH]c5ccccc45)CC3)CC2)cc1 (stereo not given) | -16% | ? | ? | -2% | . | . | . | ?
CS(=O)(=O)N1CCN(Cc2ccccc2C(F)(F)F)CC1 | -4% | 18% | -22% | 0% | 1.5% | -3% | 6% | 2%
Cc1ccc(Cn2c(CNS(=O)(=O)c3cccc([N+](=O)[O-])c3)nc3cccnc32)cc1 | . | 5%[46.1 µM] | 58%[activator] | . | -3.9% | -3% | . | .
COC(=O)CC(=O)CSc1nc2cc(C(=O)NC(C)C)ccc2c(=O)n1CCc1ccccc1 | . | -23%[46.1 µM] | -22% | . | -3.6% | ? | . | .
Cc1cc(C)cc(NS(=O)(=O)c2ccc(NC(=S)NC(=O)c3cccs3)cc2)c1 | -12% | 14µM* | 0% | 3% | -2.3% | 25µM* | 13µM* | 12µM*
COc1ccc(C(=O)NC(=S)NNC(=O)c2ccco2)cc1 | -27% | -8%[46.1 µM] | 23% | -2% | . | . | -94% | -17%[46.1 µM]
COc1ccc(/C=N/NC(=O)Cn2nc(C)c([N+](=O)[O-])c2C)cc1 | -2% | 3% | 0% | 0% | -3.4% | 15% | 6% | -1%
CN1CCN(CCNC(=O)c2ccc3nc(-c4ccc(F)cc4)c(-c4ccc(F)cc4)nc3c2)CC1 | 0% | -26%[46.1 µM] | -26% | -4% | . | . | 4% | ?
CC(CCc1ccc(O)cc1)NC1C2CC3CC(C2)CC1C3 (stereo not given) | 8% | -14% | -4% | ? | -1.2% | -3% | -9% | ?
